AID504770 = E. coli YBA685 growth inhibition, screen for V. cholerae RctB inhibitors. E. coli YBA685 rctB-dependent plasmid, OD600 growth, 3 h; active compounds read low. z-score (test concentration not listed). 130,000 compounds, 0.27% hits;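 active = z-score under -2 on both plates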;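 also: wells of about 30 µL received 100 nL stock; score is relative to mean and SD of the test wells; the first replicate is given; strong numbers were not always called active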
CapD inh = blocks the Bacillus anthracis CapD enzyme | z-score (concentration not given with the values) | 140,000 compounds, 0.23% hits | purified CapD enzyme, fluorescence intensity read-out; active compounds read low; some hits fall short of the stated cut;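 active = z-score under -4 in either of two replicates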;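 also: stock transfer was 100 nL into about 40 µL; score is relative to mean and spread of the plate; one replicate is shown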
* = called active by the depositor; / = no result given; & = joins results of further samples.

SMILES	AID504770	CapD inh
COc1ccc(-n2c(C)nc3ccccc3c2=O)cc1	-0.5	16.2
Cc1cc(N2CCN(c3ccc(F)cc3)CC2)nc2cc(O)ccc12	0.2	32.4
CC1=C(/C=C/C(C)=C/C=C/C(C)=C/C(=O)O)C(C)(C)CCC1	-0.05	0.17&-0.17
CS(=O)CC(O)(c1ccc(Cl)cc1)c1ccc(Cl)cc1 (centres undefined)	-1	0.37
COc1ccc(/C=C2\C=C(c3ccccc3)N(c3ccc(Br)cc3)C2=O)cc1Br	/	-0.53
CC(C)c1nc2ccccc2n1C1CC(=O)N(c2ccc(Cl)cc2)C1=O (centres undefined)	/	-0.945
Cc1ccc(C(=O)N2CCN(C(=O)CSCC(=O)O)CC2)cc1	/	-0.46
CCOC(=O)c1cc(CSc2nnc(SC)s2)on1	-1.3	-0.275
O=C(O)CCN1C(=O)/C(=C/c2ccccc2)SC1=S	-0.5	-0.575
COc1ccc(N2CCN(C(=O)COC(=O)c3cc[n+]([O-])cc3)CC2)cc1	0.3	/
CC(C)CCn1c(CO)nc2ccccc21	0.35	0.26
Cc1cccc(Nc2nc3nonc3nc2Nc2ccc(I)cc2)c1C	/	-0.725
COC(=O)c1ccc(COC(=O)Cn2c(C)csc2=O)o1	-0.85	/
CCN(CC)CCC(=O)NNC(=O)c1cnn(-c2ccc([N+](=O)[O-])cc2)c1C(F)(F)F	/	-0.195
O=C(Cc1c(Cl)cccc1Cl)N1CCN(S(=O)(=O)c2cccs2)CC1	0.7	/
CCOC(=O)c1cc(CSc2nc3ncccc3[nH]2)on1	-1.95	-0.07
CC(=O)Oc1ccc2cc(-c3nc4c(s3)CCc3ccccc3-4)c(=O)oc2c1	-0.1	-0.39
COc1ccc(S(=O)(=O)N2CCN=C2SC)cc1	-1.3	-0.545
CCOc1cc(C2C3=C(CC(C)(C)CC3=O)OC3=C2C(=O)CC(C)(C)C3)cc(Br)c1O	/	0.01
Cc1nn(S(=O)(=O)C(F)(F)F)c(C)c1CS(=O)(=O)c1ccccc1	/	-0.085
CN1C=CC=C/C1=C(/C#N)C(=O)NC1CCCCC1	0.6	/
Cc1c(Nc2ncnc3sc4c(c23)CCCC4)c(=O)n(-c2ccccc2)n1C	-0.25	/
N#Cc1ccc(Cn2cc(C(=O)c3ccccc3)c3ccccc32)cc1	-0.4	-0.63
CCC(C)(C(=O)Nc1cccc(C)c1)N1CCC1=O (centres undefined)	-0.55	0.38
CCCN1C(=S)NS(=O)(=O)c2ccccc21	0.1	-1.34
CCOC(=O)c1sc(=Nc2ccccc2)n(Cc2ccccc2)c1C	-0.8	1.98
CC(C)(C)NC(=O)c1c(F)cccc1F	1.3	0.075
COc1ccc(C2=Cc3ccccc3C(C)(C)O2)cc1	-0.05	0.82
CS(=O)(=O)N(CC(=O)Nc1ccc(S(=O)(=O)N2CCCCC2)cc1)c1ccccc1F	0.3	0.1
COc1ccc(N2C(=O)C3C4C=CC(O4)C3C2=O)c([N+](=O)[O-])c1 (centres undefined)	/	-0.21
CC1CN(S(=O)(=O)c2c[nH]c(=O)[nH]c2=O)CC(C)O1 (centres undefined)	1.7	/
Cc1cc(F)ccc1NCc1ccc2c(c1)OCCO2	0.2	-0.055
COc1ccc(C(=O)NCc2ccccc2OC)cc1	0.05	0.165
CN[C@@H]1C(O)[C@@H](O[C@@H]2[C@@H](O)[C@H](O[C@H]3OC(CN)=CC[C@H]3N)[C@@H](N)C[C@H]2N)OC[C@]1(C)O (some centres undefined)	1.1	0.06
CCOC(=O)C1C(=O)C(C(=O)OCC)C(c2cccnc2)NC1c1cccnc1 (centres undefined)	-0.15	/
COc1ccc(-c2csc(C(=O)NCC3CCCO3)c2)cc1 (centres undefined)	/	-0.135
O=C(/C=C/c1cccs1)Oc1ccc(I)cc1	2.4	-0.385
Cc1noc(C)c1-c1nc(CSc2n[nH]c(=O)n2C2CC2)no1	-1.55	-0.15
CC1=CC(=C(C#N)C#N)C=C(C)N1CCc1ccccc1	-1.3	/
NS(=O)(=O)c1ccc(N2CCN(CCOc3ccc(Cl)cc3)CC2)nc1	-1.15	/
CS/C(NCc1cccnc1)=C(/C#N)C(=O)c1cccs1	-0.05	-1.25
CCN1C/C(=C/c2ccc(O)cc2)C(=O)/C(=C/c2ccc(O)cc2)C1	-0.3	/
CCN1C(=O)c2cccc3c(S(=O)(=O)Nc4cccc(C)n4)ccc1c23	1.5	-1.44
Cc1cccc(C2N3CC4(C)CN2CC(C)(C3)C4O)c1 (centres undefined)	/	-0.47
COc1cc(/C=C2\SC(=S)N(NC(=O)c3ccccc3[N+](=O)[O-])C2=O)cc(OC)c1OC	/	-0.79
CCOC(=O)C1=C(N)CC(c2ccccc2)NC1c1ccccc1 (centres undefined)	1.4	-0.035
COc1ccc(OC)c2sc(NC(=O)C3CC3)nc12	-0.7	/
Oc1sc(-c2ccccc2)cc1C=Nc1ccccc1	0.8	1.4
CNC(=O)CN1C(=O)C2C3C=CC(C3)C2C1=O (centres undefined)	0.9	-0.875
CCCc1ccc(S(=O)(=O)N2CCCC2C(=O)OCc2ccccc2)cc1 (centres undefined)	/	0.02
Additional results follow.
SMILES	AID504770	CapD inh
O=C1c2ccccc2C(=O)N1CNc1ccccc1Cl	/	0.705
NC(=S)Cc1nc2ccccc2s1	-0.15	/
COc1cc(C=C2C(=O)NC(=O)NC2=O)cc(Cl)c1OCc1ccc(Cl)cc1	/	0.34
CCOC(=O)c1cc2cccc(NC(=O)c3cccc(C(F)(F)F)c3)c2[nH]1	/	-0.595
COCC(C)N=C1NN=C(c2cc(C)n(Cc3ccccc3Cl)c2C)CS1 (centres undefined)	-0.75	/
Cc1ccc(NC(=O)CC2(C)Nc3ccccc3C(=O)N2c2ccccc2C)c(C)c1 (centres undefined)	-0.35	70.1
CS/C(N)=N/N=C(\C)c1ccc(Cl)c(Cl)c1	/	-1.7
O=C(O)c1cc(NC(=O)C2CC2)cc(C(=O)O)c1	-0.8	0.605
Cc1nn(-c2ccccc2)nc1-c1n[nH]c(=S)n1-c1ccc(Cl)cc1	0.3	0.43
O=C(OCc1cc(Cl)ccc1OC(F)F)c1cccnc1	-0.4	/
COc1ccc(C(=O)Nc2cc(C(C)=O)c(/C=C/N(C)C)oc2=O)cc1	/	-0.615
CC1(C)Oc2ccc3ccc(=O)oc3c2C(/C=N/O)C1=O (centres undefined)	-1	-0.845
C/C(N)=C(/C#N)C(=O)CSc1nncn1C	-0.3	/
Cc1ccc(S(=O)(=O)N2CC=C(C(=O)NCC3CCCO3)CC2)cc1 (centres undefined)	-0.15	0.05
O=C1OC(Oc2ccccc2)(c2ccccc2)c2ccccc21 (centres undefined)	/	-0.74
COc1ccc([C@@H]2Sc3ccccc3N(CCN(C)C)C(=O)[C@@H]2OC(C)=O)cc1	/	-0.305
O=C(OCc1nc2ccccc2s1)c1ccco1	-0.8	0.38
O/N=C1\c2ccccc2-c2c(F)c(F)c(F)c(F)c21	-0.25	0.285
O=C(NCCc1c[nH]c2ccccc12)C1CC(=O)N(Cc2ccco2)C1 (centres undefined)	-0.4	/
Cn1c(=O)c2c(nc(NCC3CCCO3)n2Cc2ccc(Cl)cc2)n(C)c1=O (centres undefined)	-0.4	0.075
Cc1ccc(OCc2ccc(C(=O)N3c4ccccc4CC3C)cc2)cc1C (centres undefined)	0.9	27
CCOC(=O)CCn1c(=S)n(CCC(=O)OCC)c2ccccc21	/	-0.16
N#C/C(=C\N1CCN(C(c2ccccc2)c2ccccc2)CC1)S(=O)(=O)c1ccccc1	1.7	-1.38
Cn1cnnc1-c1cccc(NS(=O)(=O)c2ccc(N3CCCC3=O)cc2)c1	-0.85	-0.245
COc1cc(OCCN2CCOCC2)ccc1C1C(C#N)=C(N)Oc2nc(C(F)(F)F)[nH]c21 (centres undefined)	-0.4	0.465
CCOC(=O)COc1ccc2c(c1)OCO2	-0.65	-0.24
CCOC(=O)C1=C(C)N=c2s/c(=C\c3cccc(OCC(=O)O)c3)c(=O)n2C1c1ccccc1OC (centres undefined)	/	-0.3
CCC(=O)Nc1ccccc1C(=O)OCC(=O)Nc1nc2ccc(C(=O)OC)cc2s1	1	25.7
COc1ccc(NC(=O)CSc2nc3c(sc(=S)n3-c3ccccc3)c(=O)[nH]2)c(OC)c1	/	-0.875
CCCCOC(=O)c1ccc(Nc2c(C(=O)OCC)cnc3c(C)cc(C)cc23)cc1	/	-0.02
CCCN1CCN(c2nc(-c3cccs3)nc3ccccc23)CC1	-0.6	/
CC(C)c1ccc(N2C(=O)CSC23C(=O)Nc2ccccc23)cc1 (centres undefined)	/	-0.405
CCOC(=O)C1=CN(Cc2ccc(OC)c(OC)c2)C=C(C(=O)OCC)C1c1ccc([N+](=O)[O-])cc1	/	0.29
Nc1ccc(S(=O)(=O)NCCO)cc1	-0.45	-0.03
CCN(CC)Cc1cc(O)c(CN(CC)CC)cc1O	0.35	-1.98
N#CCC(c1ccccc1)c1ccc2c(c1)OCO2 (centres undefined)	0.1	/
O=C(NCC1COc2ccccc2O1)c1ncoc1-c1ccc2ccccc2c1 (centres undefined)	-0.45	/
O=C(CCCCl)Nc1ccc(Cl)cn1	-0.6	0.435
CN1CCSc2ccc(C(=O)NC3CCCCC3)cc21	0.75	42
CCN(CC)S(=O)(=O)c1ccc2[nH]c3nc(SCC(=O)Nc4ccc(C)c(Cl)c4)nnc3c2c1	1.75	0.005
COc1ccc(-c2cc(C(F)(F)F)nc(SCCC(=O)N3CCCC3)n2)cc1	1.65	-0.615
OC(CNCc1ccccc1)COCc1ccc(Cl)cc1 (centres undefined)	-0.25	-0.645
CNCCCc1ccccc1	-0.65	/
CCCSc1nsc(SCCC)c1C(N)=O	-0.15	/
CC1CC(C)(C)CC2(C1)NC(=O)N(c1ccccc1)N2 (centres undefined)	0.85	0.145
CN(C)c1ccc(C(F)(F)F)cn1	-0.35	0.59
COc1ccc(Nc2nc(N)nc(CSC(=S)N3CCOCC3)n2)cc1	-0.6	-0.175
O=c1ccsn1-c1cccc(Cl)c1F	/	-0.19
O=C(c1ccccc1)N1CN(C(=O)c2ccccc2)CN(C(=O)c2ccccc2)C1	-0.35	-0.915
O=C(O)Cc1ccc(C(F)(F)F)cc1	0.2	/
Going on with the list:
SMILES	AID504770	CapD inh
CCCN1CCN(C(=O)c2sc3ncnc(N(C)c4ccccc4)c3c2C)CC1	/	-1.13
CCC(C)NC(=O)c1c[nH]c2ccc(S(=O)(=O)N(CCCN3CCOCC3)Cc3ccco3)cc2c1=O (centres undefined)	/	4.25
CN(C)c1nc(Oc2ccc(=O)n(C)n2)nc(N2CCCCC2)n1	0.6	-0.19
O=C(O)CCC(=O)Nc1ccc(-c2ccccc2)cc1	0.3	/
CCN1C(=O)C2(c3ccccc31)c1c(oc3ccccc3c1=O)C(=O)N2CCO (centres undefined)	-0.1	0.255
Cc1cc2ccccc2n1CCNC(=O)c1ccc(S(=O)(=O)N(C)C)cc1	-1.1	-0.185
O=C(O)c1ccc2nc(CCc3nc4ccc(C(=O)O)cc4[nH]3)[nH]c2c1	0.4	0.29
CCOC(=O)C1=C(C)N=c2s/c(=C/c3cccc([N+](=O)[O-])c3)c(=O)n2C1c1ccc(OC(C)=O)cc1 (centres undefined)	/	-0.415
Clc1ccc(-c2nnc(Cc3csc(-c4cccs4)n3)o2)cc1	-0.8	1.73
CCOc1ccccc1N(CC(=O)Nc1c(C)n(C)n(-c2ccccc2)c1=O)S(=O)(=O)c1ccccc1	/	-0.32
CCCSc1nc2ccc(S(=O)(=O)N3CCOCC3)cc2[nH]1	-0.1	/
CCCCn1c(=N)n(CCOc2ccccc2)c2ccccc21	-0.2	-0.21
CCCOc1ccc(/C=C2\C(=O)N(c3ccc(Cl)c(C(=O)O)c3)N=C2C)cc1OC	/	-0.485
Cc1cccc(C)c1NC(=O)c1cccc2ccccc12	/	-0.245
CCOC(=O)COc1c(Cl)cc(/C=C2/NC(=O)NC2=O)cc1OC	-0.15	1.35
O=C(CSc1nc(O)c(C2CCCCC2)c(=O)[nH]1)NCC1CCCO1 (centres undefined)	-1.1	-0.52
CC1CC(C)CN(S(=O)(=O)c2ccc(N)cc2)C1 (centres undefined)	1.1	0.24
COc1ccc(NC(=O)c2ccc(Sc3ccc(C)cc3)c([N+](=O)[O-])c2)cc1	/	-0.195
O=C(NCCCC(=O)N1CCN(C/C=C/c2ccccc2)CC1)OCc1ccccc1	/	-0.87

By substructure, the entries above containing an NH in an aromatic ring.
SMILES	AID504770	CapD inh
CCOC(=O)c1cc(CSc2nc3ncccc3[nH]2)on1	-1.95	-0.07
CC1CN(S(=O)(=O)c2c[nH]c(=O)[nH]c2=O)CC(C)O1 (centres undefined)	1.7	/
Cc1noc(C)c1-c1nc(CSc2n[nH]c(=O)n2C2CC2)no1	-1.55	-0.15
CCOC(=O)c1cc2cccc(NC(=O)c3cccc(C(F)(F)F)c3)c2[nH]1	/	-0.595
Cc1nn(-c2ccccc2)nc1-c1n[nH]c(=S)n1-c1ccc(Cl)cc1	0.3	0.43
O=C(NCCc1c[nH]c2ccccc12)C1CC(=O)N(Cc2ccco2)C1 (centres undefined)	-0.4	/
COc1cc(OCCN2CCOCC2)ccc1C1C(C#N)=C(N)Oc2nc(C(F)(F)F)[nH]c21 (centres undefined)	-0.4	0.465
COc1ccc(NC(=O)CSc2nc3c(sc(=S)n3-c3ccccc3)c(=O)[nH]2)c(OC)c1	/	-0.875
CCN(CC)S(=O)(=O)c1ccc2[nH]c3nc(SCC(=O)Nc4ccc(C)c(Cl)c4)nnc3c2c1	1.75	0.005
CCC(C)NC(=O)c1c[nH]c2ccc(S(=O)(=O)N(CCCN3CCOCC3)Cc3ccco3)cc2c1=O (centres undefined)	/	4.25
O=C(O)c1ccc2nc(CCc3nc4ccc(C(=O)O)cc4[nH]3)[nH]c2c1	0.4	0.29
CCCSc1nc2ccc(S(=O)(=O)N3CCOCC3)cc2[nH]1	-0.1	/
O=C(CSc1nc(O)c(C2CCCCC2)c(=O)[nH]1)NCC1CCCO1 (centres undefined)	-1.1	-0.52

Bioassay records as filed in PubChem.
